# Screening data: PubChem, Fisher Drug Discovery Resource Center
# NPYLR7 agonist: activates Aedes aegypti NPYLR7 receptor | HEK293T NPYLR7/Galpha15, GCaMP6s calcium fluorescence | 270,000 compounds, 0.15% hits | activation, % at 10 µM; in the data active = activation above about 40%;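 note: 0% = vehicle and 100% = reference agonist at the receptor; some compounds past the cut are filed as inactive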
# NPYLR7 agonist max-min: further read-out of NPYLR7 agonist, marked with its call; activation, %; measured here: Max-Min RFU normalised activation; some inactives read as strong as hits;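 span of the calcium signal over five minutes; 0% = vehicle and 100% = native peptide agonist; compound fluorescence can raise it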
# Active calls of the source: *; & = joins results of further samples. Not all compounds are listed; count on the stated rates, not on these rows.
mol	NPYLR7 agonist max-min	NPYLR7 agonist
CCc1cc(N2CCN(c3cccc(C(F)(F)F)c3)CC2)nc(SCc2ccc(C(=O)NCc3ccco3)cc2)n1	10	7
O=C(c1ncc[nH]1)N1CCOC(COc2ccc(F)cc2)C1 (stereo not drawn)	20	15
C=CCOC(=O)C1=C(C)NC(=O)NC1c1ccc(F)cc1 (stereo not drawn)	-9	-3
Cc1cn2c3c(=O)n(Cc4ccc(F)cc4)c(=O)n(C)c3nc2n1CCN(C)C	26	-2
CN(Cc1ccno1)C(=O)c1ccccc1C1CCNC1 (stereo not drawn)	3	5
Cc1ncc(CN(C)C(C)c2ccccn2)[nH]1 (stereo not drawn)	8	11
O=C(/C=C/c1ccncc1)NC1CCCN(Cc2ccc(Cl)cc2)C1 (stereo not drawn)	-7	-4
Cc1ccc(-n2nc(C)c3c(=O)c(C(=O)Nc4ccccc4)c[nH]c32)cc1	11	-3

# (list continues)
mol	NPYLR7 agonist max-min	NPYLR7 agonist
Cc1cccc(NC(=O)CSc2nnc(NC(=O)c3ccccc3I)s2)c1	2	-8
Cc1[nH]c2ccccc2c1SCC(=O)N1CCOCC1	-1	-1
Cc1cc(C)c(S(=O)(=O)N2CCC(C(=O)N3CCc4sccc4C3)CC2)c(C)c1	11	14
CC(=O)c1ccc(S(=O)(=O)N2CCN(C(=O)c3cc(C(C)C)nc4c3c(C)nn4C)CC2)cc1	4	-1
O=C(O)CCC(=O)N(Cc1ccccc1)Cc1cn(-c2ccccc2)nc1-c1cccnc1	1	-6
CC1=C(C(=O)OC2CCCC2C)C(c2ccc(Cl)c(Cl)c2)NC(=O)N1C (stereo not drawn)	9	9
CNCC(=O)NC(C)c1ccc(OC)c(F)c1 (stereo not drawn)	15	13
COCC(=O)N(Cc1ccco1)Cc1cc(Cl)ccc1OS(=O)(=O)c1ccc(NC(C)=O)cc1	5	2

# Part of the list above, with two lines to a compound.
# Order of results: NPYLR7 agonist max-min	NPYLR7 agonist
Cc1[nH]c2ccccc2c1SCC(=O)N1CCOCC1
→ -1	-1
O=C(O)CCC(=O)N(Cc1ccccc1)Cc1cn(-c2ccccc2)nc1-c1cccnc1
→ 1	-6
COCC(=O)N(Cc1ccco1)Cc1cc(Cl)ccc1OS(=O)(=O)c1ccc(NC(C)=O)cc1
→ 5	2

# Carrying on:
mol	NPYLR7 agonist max-min	NPYLR7 agonist
O=S(=O)(c1ccc2c(c1)OCCO2)N1CCN(c2ccc(F)cc2)CC1	0	0
Cc1c(C(=O)NC2CCCCC2)cc(-c2ccc(Cl)cc2)n1-c1ccc2c(c1)OCO2	28	22
COc1ccc(CN(C)Cc2nc(NCc3cccs3)c3ccccc3n2)c2cccnc12	13	26
O=S(=O)(NCc1nnc2ccccn12)c1ccc(F)cc1	11	8
O=C(NCc1ccc(F)cc1)C(C1CCCC1)N1CCN(C(=O)c2ccc(Cl)c(Cl)c2)CC1 (stereo not drawn)	17	12
Cn1c(=O)c2c(nc(CN3CCN(c4ccc(F)cc4)CC3)n2CCN2CCOCC2)n(C)c1=O	10	0
COC(=O)c1nc(C(=O)OC)c(C(=O)OC)nc1C(=O)OC	3	3
COc1cc2c(cc1OC)C(C(C)C)N(C(=O)c1ccco1)CC2 (stereo not drawn)	2	-7

# (further entries)
mol	NPYLR7 agonist max-min	NPYLR7 agonist
Clc1cc2c(c(CSc3nnc(-c4ccco4)o3)c1)OCOC2	10	1
CC(=O)C1=C(O)C(=O)OC1c1ccc(C(C)C)cc1 (stereo not drawn)	5	12
Nc1nc(Nc2ccccc2)nc2c1ncn2[C@@H]1O[C@H](CO)[C@H](O)C1O (stereo partly drawn)	-19	0
O=S(=O)(Nc1nc2ccccc2nc1-[n+]1ccccc1)c1ccc(Cl)cc1	14	7
O=c1c2ccccc2ncn1CCOc1ccccc1F	11	24
Cc1nc(C)c(CC(=O)O)c(=O)[nH]1	1	2
O=C(NC(Cc1ccccc1)c1nc(-c2ccco2)no1)c1ccco1 (stereo not drawn)	-1	4
N#Cc1ccc(NS(=O)(=O)c2ccc(F)cc2)cc1	9	23

# Single records, as listed above. Screens in order: NPYLR7 agonist max-min, NPYLR7 agonist
# Entry for O=C(NC(Cc1ccccc1)c1nc(-c2ccco2)no1)c1ccco1 (stereo not drawn) : -1, 4
# Entry for Cc1nc(C)c(CC(=O)O)c(=O)[nH]1 : 1, 2
# Entry for N#Cc1ccc(NS(=O)(=O)c2ccc(F)cc2)cc1 : 9, 23
# Entry for CC(=O)C1=C(O)C(=O)OC1c1ccc(C(C)C)cc1 (stereo not drawn) : 5, 12
# Entry for Clc1cc2c(c(CSc3nnc(-c4ccco4)o3)c1)OCOC2 : 10, 1

# Other compounds
mol	NPYLR7 agonist max-min	NPYLR7 agonist
COc1cc(C(=O)N2CCCC(CNS(=O)(=O)c3cccs3)C2)c2ccccc2n1 (stereo not drawn)	-5&6	-1&2
CCN(CC)C1CCN(C(=O)C(C)Oc2cccc(C(C)(C)C)c2)CC1 (stereo not drawn)	3	5
COc1ccc(CCN2C(=O)CC(C(=O)Nc3cccc(C)c3)SC2=Nc2ccccc2)cc1 (stereo not drawn)	-2	1
Nc1nc2c(ncn2[C@@H]2O[C@H](CO)[C@@H](O)[C@H]2O)c(=O)[nH]1	-11	-7
CCCCCN(Cc1cccn1Cc1cccc(C(F)(F)F)c1)C(=O)CN(CC)C(=O)c1cc(OC)cc(OC)c1	6	-4
CCOC(=O)C(=O)N1CCC(OC)c2ccccc2N(C)C(=O)C1 (stereo not drawn)	6	4
COCC(=O)N1CCC2(CC1)C(=O)N(CC(=O)N1CCN(C(C)=O)CC1)CN2c1ccccc1	9	-3
Cn1cc(C(CC(=O)NCc2ccc(F)cc2)c2ccccc2C(F)(F)F)c2ccccc21 (stereo not drawn)	8	2

# (listing goes on)
mol	NPYLR7 agonist max-min	NPYLR7 agonist
Cc1cc2cc(C(=O)NC(C)c3cnn(-c4ccccc4)c3C)ccc2o1 (stereo not drawn)	5	7
Cc1ccc(-n2c(SCc3cccc(C)c3)nnc2C(C)NS(=O)(=O)c2ccc3ccccc3c2)cc1 (stereo not drawn)	23	6
CNC(=O)CN1C(=O)N(C)C2(CCC(C)CC2)C1=O (stereo not drawn)	-4	-2
CC(=O)c1sc(=Nc2ccc(C)c(C)c2)n(CCO)c1C	-9	-5
Cc1cc(N2CCN(C)CC2)n2nc(C(F)(F)F)c(-c3ccccc3)c2n1	5	3
COc1ccc2c3c1CN(C(=O)COc1ccccc1)CC3=CC(C)(C)CO2	2	1
Cc1cc(F)ccc1Oc1cc(N(C)Cc2ccccc2)ncn1	-1	-6
N#CC(C(=N)Sc1ccc(N)cc1)c1ccccc1C(F)(F)F (stereo not drawn)	-20	-17

# (more compounds)
mol	NPYLR7 agonist max-min	NPYLR7 agonist
C[C@H](NC(=O)C12CC3CC(CC(C3)C1)C2)C(=O)N1CCC(C(=O)N2CCCCC2)CC1	7	-2
COc1cc(-c2ccnc(N3CCN(C(=O)C(C)Oc4ccccc4)CC3)n2)cc(OC)c1OC (stereo not drawn)	8	10
CCOc1ccc(-c2cc(NC3CCCC3)nc3[nH]ccc23)nn1	-1	1
O=C(c1ccc(F)c(F)c1)N1CCc2ccccc2C1	3	1
CCOC(=O)C1CCN(C(=O)c2cccnc2Nc2cccc(C(F)(F)F)c2)CC1	12	15
COc1ccc(C(=O)C2CCCN(Cc3csc(C(C)=O)c3)C2)cc1OC (stereo not drawn)	5	19
CC(C)NC(=O)C1(C)CCN1Cc1c(F)cccc1F (stereo not drawn)	2	3
O=C(CCN1CCOC(C(F)(F)F)C1)Nc1nnc(C2CC2)s1 (stereo not drawn)	1	2

# Additional compounds.
mol	NPYLR7 agonist max-min	NPYLR7 agonist
Cn1nnnc1SCCNC(=O)c1cnn2c1CCCC2	5	5
Cc1ccc(F)c(NC(=O)CCC(=O)N(C)Cc2ncc(C)[nH]2)c1	2	2
CC(=O)/C=C\[C@@H]1[C@@]2(C)CCCC(C)(C)C2CC[C@@]1(C)O (stereo partly drawn)	-13	-7
Cc1cc2nc(C(=O)N3CCNCC3C(=O)NC3CC3)cc(C)n2n1 (stereo not drawn)	-4	0
C=CCNC(=S)Nc1cc(S(=O)(=O)N2CCOCC2)ccc1-n1cncn1	6	9
Brc1ccc(-c2csc(C3COc4ccccc4O3)n2)cc1 (stereo not drawn)	12	7
Cc1cc(C)n(-c2ccc(Nc3ccc(NC(=O)Nc4ccccc4F)cc3)nn2)n1	-10	-2
Cc1ccccc1C(CC(=O)OCC1=CC[C@H]2C[C@@H]1C2(C)C)NC(N)=O (stereo partly drawn)	-6	-3

# (continued)
mol	NPYLR7 agonist max-min	NPYLR7 agonist
Cc1ccc(NC(=O)c2cc(-c3cccs3)nc3ccccc23)cc1Cl	-10	-5
CN(Cc1ccccc1)Cc1nc2c(c(=O)n(C)c(=O)n2C)n1CCc1ccccc1	3	6
Cc1noc(C(C)NS(=O)(=O)c2cccc(F)c2C)n1 (stereo not drawn)	-2	-2
Cc1cc(C)nc(N(C#N)C(C)C(=O)N(C)C)n1 (stereo not drawn)	-3	0
O=C1N=c2ccc(Br)cc2=C1c1sc(=S)n(-c2ccc(Br)cc2)c1O	-9	-4
CC(C)(C)OC(=O)NCC1CCCN1c1ccnc(-c2ccccc2)n1 (stereo not drawn)	-10	2
O=C(c1cccs1)N1CCN(Cn2cnc3ccc(Cl)cc3c2=O)CC1	0	4
O=C(NC1CCCC1)O[C@H]1CN(C(=O)NC2CCCC2)[C@H]2CC[C@@H](N3CCOCC3)[C@@H]1C2	33	27

# The listing continues:
mol	NPYLR7 agonist max-min	NPYLR7 agonist
COc1cc(/C=N\NC(=O)C(C)Sc2nc3ccccc3s2)ccc1OCC(N)=O (stereo not drawn)	11	2
CC(=O)c1c(C)cc(C)c(CN(C)Cc2ncc[nH]2)c1C	6	6
CN(Cc1csc(-c2ncccn2)n1)c1ccc(C(C)(C)C)cc1	1	3
CCCN(CC(=O)N1CCc2sccc2C1c1ccccc1C)C(=O)c1cccc(F)c1 (stereo not drawn)	20	15
CC1CN(c2ccc(Cl)cc2)c2nc3c(c(=O)n(CCCO)c(=O)n3C)n2C1 (stereo not drawn)	10	16
O=C(CSc1nnc(NC(=O)c2cccc(F)c2)s1)Nc1ccccc1C(F)(F)F	5	4
C[C@@H]1CN(Cc2cccc(C(=O)Nc3ccc4c(c3)CC(=O)N4)c2)[C@@H](C)CN1	-4	-4
Cc1ccc(Cl)c(OC2CC3CCC(C2)N3C(=O)c2ccc(CSCCc3ccccc3)cc2)c1 (stereo not drawn)	-1	9

# Continuation.
mol	NPYLR7 agonist max-min	NPYLR7 agonist
CC(C(=O)Nc1cccc(NC(=O)CCc2ccccc2)c1)N1CCCC1=O (stereo not drawn)	4	16
c1ccc(-n2nccc2CN2C[C@@H]3[C@H](C2)[C@H]2CC[C@@H]3O2)cc1	7	11
CCc1ccccc1NC(=O)N1CCN(c2cc(Oc3ccc(Cl)c(C)c3)ncn2)CC1	4	-9
CCc1nc(N(CCC(=O)N2CCCC2)CCc2ccccc2)c2ccccc2n1	18	12
O=C(Cc1ccc(Cl)cc1)NC1CCCN(Cc2ccccc2F)C1 (stereo not drawn)	3	19
O=C(CSc1nnc(-c2cnn(-c3ccccc3)c2-n2cccc2)o1)Nc1ccccc1	-4	-4
COC(=O)c1ccc(-c2noc(CN(C)CC3Cc4ccccc4O3)n2)cc1 (stereo not drawn)	-2	1
Cc1nn(CC(=O)NC(C)c2ccccc2)c(C)c1[N+](=O)[O-] (stereo not drawn)	-9	-5

# Next section
mol	NPYLR7 agonist max-min	NPYLR7 agonist
CN(C)C1CCCN(Cc2cccc(OCC(N)=O)c2)CC1 (stereo not drawn)	5	4
Cc1ccc(C(C)NS(=O)(=O)c2ccc3c(c2)CCO3)o1 (stereo not drawn)	0	1
O=C(CCCn1cnc2ccccc2c1=O)NCCc1cnc[nH]1	-2	11
CN(CC(=O)NCc1ccco1)C(=O)c1ccc(Oc2ccccc2)cc1	-14	-15
Cn1ncc(N=Cc2ccc([N+](=O)[O-])cc2)c1C(N)=O	-8	-4
CC(=O)N1CCN(C(=O)c2ccc(CSc3nc(N4CCCC4)cc(C(C)(C)C)n3)o2)CC1	7	6
Cn1nccc1CNC(=O)NCC(O)c1cccc(C(F)(F)F)c1 (stereo not drawn)	12	15
CCCCn1c(CN2CCCC(C(=O)N3CCOCC3)C2)cnc1S(=O)(=O)CC (stereo not drawn)	-3	1

# Going on with the list.
mol	NPYLR7 agonist max-min	NPYLR7 agonist
CCOC(=O)C1CCCN(C2CCN(Cc3nc(COc4ccccc4)no3)CC2)C1 (stereo not drawn)	3	7
CCOC(=O)c1ccc(NC(=O)Cn2cc(OC)c(=O)cc2CSc2ncccn2)cc1	-15	-7
COc1cccc(CCC2CCCN(c3ncccc3C(N)=O)C2)c1 (stereo not drawn)	-1	2
CCOc1ccc(C(=O)Nc2ccccn2)cc1[N+](=O)[O-]	16	6
COC(=O)c1ccc(/C=C2/SC(=S)N(C(C(=O)O)C(C)C)C2=O)cc1 (stereo not drawn)	-5	-2
Cc1cnc(C(=O)N2CCc3c([nH]c4ccccc34)C2c2cccc(C)n2)cn1 (stereo not drawn)	-14	-11
CC(C)=CC(=O)N1CC[C@@H](N2CCN(c3ccccc3F)CC2)[C@H](O)C1	7	20
O=C(O)c1cccc(N2C(=O)C3C4C=CC(CC4)C3C2=O)c1 (stereo not drawn)	-4	2

# (listing goes on)
mol	NPYLR7 agonist max-min	NPYLR7 agonist
Cc1cccc(CO[C@]2(C(=O)NCCN(C)C)CC(OCc3ccc(C#N)cc3)[C@@H]3OC(C)(C)O[C@@H]3C2)c1 (stereo partly drawn)	2	1
Cc1cc(-c2nccn2CCN2CCN(c3ncccn3)CC2)cc(C)c1O	-8	-6
CCOc1ccc(-n2ccc3c(cnc4nc5ccccc5n43)c2=O)cc1	10	5
O=C(Nc1ccccc1)N1CCN(C(=O)c2ccc(-n3cnnn3)cc2)CC1	-4	-5
Cc1nc(-n2nc(-c3ccco3)cc2NC(=O)Cc2ccc(F)cc2)[nH]c(=O)c1C	-2	-1
CCN(CC(=O)Nc1cc(-c2ccccc2)nn1-c1ccc(Cl)c(Cl)c1)C(=O)Nc1ccc(OC)cc1	3	0
